Bioassay records (PubChem BioAssay)
Menin-MLL FL inh = inhibitors of human menin-MLL interaction, wild-type MLL peptide | FP activity change, % at 61.4 µM | 290,000 tested, under 10 active | Fluorescence polarization, fluorescein-MLL peptide displacement from menin; inconclusive = falling polarisation curve, or a change in total fluorescence; inactive = total fluorescence flat and polarisation flat or rising; no compound was filed as active; the % refers to the polarisation; negative = inhibition;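 further: % of control where 0% means no effect; inhibitors lower the polarisation; unlabelled MLL peptide was the positive control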
PINK1 modulator = PINK1 expression modulation. 0.2% of 410,000 active. Potency, µM (series often up to 76.6 µM), inactives show top-dose activation (PINK1 increase), most hits filed as activators. PINK1 immunofluorescence, high-content cytometry, 24 h. AID 624263; active = well fitted activation curve with a large enough effect; inconclusive = small, poorly fitted or top-dose-only effect; inactive = flat fitted curve, though single readings scatter; cell line not stated here;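 further: potency means the concentration at half of the fitted maximal effect; % of control where 0% means no effect; nearly all actives have a fitted effect of over 65% in size; a mitochondrial uncoupler was the plate control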
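Compound titrations (5 concentrations, 24 h) on a stable cell line; DMSO and CCCP controls. Endpoint: fixed-cell PINK1 immunofluorescence with mitochondrial, cell and nuclear markers, scanned by microplate cytometer.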
Sfp PPTase inh = blocks B. subtilis Sfp PPTase activity; Q9F4F7; Biochemical Sfp PPTase activity, qHTS; Potency, µM, for inactives: max response, negative = inhibition, most hits filed as inhibitors; 3.5% of 310,000 active; AID 1490; active means well fitted inhibition curve with a large enough effect; inconclusive means small, poorly fitted or top-dose-only effect, or another doubt; inactive means no such curve, though single readings can be large or run the other way;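 further: the enzyme is Sfp with the accession as filed and its product quenches rhodamine fluorescence; potency means the concentration at half of the fitted maximal effect; 0% = enzyme reaction without inhibitor and -100% = no enzyme wells; top concentration of the series not given in the record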
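Fluorescence-quenching assay with 15 nM Sfp, 5 uM rhodamine-CoA and 12.5 uM BHQ-2-labelled ybbR peptide in pH 7.6 Hepes/MgCl2 buffer. Enzyme was pre-incubated with compound for 15 min at room temperature. Rate was taken from the 30-min fluorescence change (525/598 nm).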
gsp agonist = agonists of gsp mutant (McCune-Albright syndrome) | gsp mutant cells, cAMP HTRF, 30 min; control for the full effect not named in the record | Potency, µM (doses to about 76.9 µM), without a hit: at the highest dose activation (cAMP increase), most hits filed as activators | 0.13% of 340,000 active | AID 624287; active = well fitted activation curve with a large enough effect; inconclusive = small, poorly fitted or top-dose-only effect, or another doubt; inactive = no such curve, though single readings can be large or run the other way; cell line not stated here;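 further: phosphodiesterase inhibitor Ro 20-1724 added with compounds to block cAMP breakdown; potency means the concentration at half of the fitted maximal effect; nearly all actives have a fitted effect of over 60% in size; about a fifth of the inactives were tested at one dose only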
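Cells in DMEM/10% FBS with G418 were pretreated with compounds in DMSO plus […] (300 uM stock) for 30 min at 37C. cAMP was measured by HTRF (cAMP-d2 plus anti-cAMP antibody-K) after 30 min at room temperature.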
gsp antagonist = antagonizes gsp, the McCune-Albright syndrome mutation | gsp-mutant cells, cAMP HTRF, 30 min; control for the full effect not named in the record | Potency, µM (highest dose often 76.9 µM), without a hit: at the highest dose activity change, negative = inhibition, hits mostly inhibitors | 0.4% of 340,000 active | AID 624288; active = falling curve of any shape with a large fitted effect; inconclusive = falling curve, mostly with a smaller effect; inactive = flat or rising curve; cell line not stated here;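 further: intracellular cAMP measured with PDE inhibitor Ro 20-1724 present during compound exposure; potency means the concentration at half of the fitted maximal effect; on the % scale 0 is the no-effect control and ±100 the full control effect; nearly all actives have a fitted effect of over 65% in size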
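Cells, 2000/well, grown 16–24 h in DMEM 10% FBS with 0.5 mg/ml G418, then compounds plus […] (300 uM addition stock), 30 min at 37C. cAMP read by HTRF (cAMP-d2 and anti-cAMP antibody-K in lysis buffer) after 30 min RT.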
ClpP mod = qHTS Assay for Activators of ClpP | purified B. subtilis ClpP, FRET peptide cleavage, 20 min | 1.9% of 340,000 active | ATP-dependent Clp protease proteolytic subunit (Bacillus subtilis (strain 168)), P80244 | Potency, µM (doses to about 57.5 µM), for inactives: top-dose activity change, negative = active; active = well fitted falling curve with a large enough effect; inconclusive = small, poorly fitted or top-dose-only effect; inactive = no such curve, though single readings can be large or run the other way; further: potency means the concentration at half of the fitted maximal effect; the source files actives as falling curves though it sought activators and does not explain the sign; nearly all actives have a fitted effect of over 65% in size; many hits overshoot -100%
Target sequence (P80244 whole entry, looked up): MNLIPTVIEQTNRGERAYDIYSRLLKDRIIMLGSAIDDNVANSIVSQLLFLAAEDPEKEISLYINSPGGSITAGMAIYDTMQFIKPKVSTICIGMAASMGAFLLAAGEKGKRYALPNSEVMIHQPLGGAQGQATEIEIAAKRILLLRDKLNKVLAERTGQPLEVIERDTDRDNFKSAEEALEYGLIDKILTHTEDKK
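ClpP 10 microg/mL final, pH 8 Tris/KCl buffer with BSA, glycerol, Tween-20; compound pinned in; FRET-FV substrate; RT 20 min; Ex320/Em430; ΔFRET vs ADEP 5.8 microM, DMSO, no enzyme.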
D2 ag = agonists of human D2 dopamine receptor (beta-arrestin); P14416; DiscoveRx PathHunter D2 beta-arrestin, luminescence, 90 min; 100% = 57 uM dopamine signal; activation, % (test concentration not listed); 0.084% of 360,000 active; in the data active = activation above about 40%; inconclusive = about 15% to 40%; inactive = below about 15%; further: compound concentration not given in the record; the text of the record calls up to 30% inactive
Target sequence (P14416 whole entry, looked up): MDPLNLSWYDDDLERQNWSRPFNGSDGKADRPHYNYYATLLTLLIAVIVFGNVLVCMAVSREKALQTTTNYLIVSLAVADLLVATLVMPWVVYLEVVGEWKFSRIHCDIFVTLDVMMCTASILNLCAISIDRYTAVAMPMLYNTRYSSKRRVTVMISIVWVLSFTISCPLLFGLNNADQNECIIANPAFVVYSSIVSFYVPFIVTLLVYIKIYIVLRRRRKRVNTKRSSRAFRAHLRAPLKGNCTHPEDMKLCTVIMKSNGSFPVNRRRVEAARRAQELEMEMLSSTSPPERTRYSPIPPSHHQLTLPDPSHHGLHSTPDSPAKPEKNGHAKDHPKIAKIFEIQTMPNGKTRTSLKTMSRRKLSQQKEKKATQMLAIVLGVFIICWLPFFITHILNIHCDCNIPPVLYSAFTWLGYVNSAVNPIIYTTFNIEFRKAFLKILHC
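Agonist mode: compounds alone added to overnight-plated D2 PathHunter cells for 90 min at 37 C, with 57 uM final dopamine (EC100) defining full response. Beta-arrestin recruitment detected by chemiluminescent reagent, read after 1 h at ambient temperature.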
* = called active by the depositor; ? = inconclusive; / = not tested or not shown; & = joins results of further samples; [ ] = another dose, or the depositor's remark. Compounds as they come, and some 5.1% of all compounds hit somewhere here.

SMILES	Menin-MLL FL inh	PINK1 modulator	Sfp PPTase inh	gsp agonist	gsp antagonist	ClpP mod	D2 ag
Cc1nnc(SCC(=O)NN2C(=O)NC3(CCCCC3)C2=O)s1	5.5	-1.5%	8%	18%	9%	-0.2%	-1.7
C#CCSc1nnc(-c2ccc(OC)cc2)o1	-5.9	1.6%	-3%	-17%	8%	-3.9%	-1.3
CCn1c(Cc2ccccc2)nnc1SCC(=O)N1CCCCC1	-0.3	0.9%	17%	?	5%	1.2%	-1.8
COc1ccc(Cl)cc1NC(=O)CN(C)C(=O)CCc1nc2ccccc2c(=O)[nH]1	/	1.3%	/	1%	-12%	0.9%	-4.4
O=C(NC1CC1)C1CCN(C2CCN(C(=O)/C=C/c3cccc(F)c3F)CC2)CC1	-1.6	-0.6%	17%	10%	9%	/	2.4
O=C(COC(=O)c1ccc(S(=O)(=O)N2CCOCC2)cc1)Nc1ccccc1OC(F)F	/	2.1%	/	-2%	4%	1.6%	-0.9
CN1C=CC=C/C1=C1\SC(=S)N(C2CCCCC2)C1=O	3.0	34%[38.3 µM]	-18%	-6%	-9%	2.2%	-6.3
Cc1cc(C)nc(NS(=O)(=O)c2ccc(NC(=O)Cn3c(=O)oc4ccccc43)cc2)n1	1.4	1.6%	-18%	5%	0%	-0.6%	-3.4
COCCNC(=O)C(c1ccc(Cl)cc1)N(C(=O)Cn1nnc2ccccc21)c1cccnc1 (stereo unspecified)	-1.2	-0.8%	14%	-5%[15.4 µM]	-13%	/	-0.4
Cc1c(C)c2ccc(O[C@@H]3O[C@H](CO)[C@H](O)[C@H](O)[C@H]3O)c(C)c2oc1=O	-9.0	0.6%	9%	-5%[15.4 µM]	7%	/	-2.3
C#CCN(C[C@@H]1[C@@H](OC(=O)NCc2ccco2)[C@@H](OC(=O)NCc2ccco2)Cn2c(=O)n(CCCCCC)c(=O)n21)S(=O)(=O)c1ccc(C)cc1	/	2.3%	/	-43%[inhibitor]	/	-2.7%	-6.8
Cc1ccc(-n2nc3c(=O)n(CCCC(=O)NCCc4ccccc4)nc(C)c3c2C)cc1	/	1.8%&-0.4%	7%	?	-7%	-3.1%&-3.3%	1.7
CCNC(=S)NN=C1CCC(C(C)(C)C)CC1 (stereo unspecified)	-2.0	2.1%	50µM*	-61%[inhibitor]	9%	28µM*	-2.6
CCn1c(SCC(=O)N/N=C/c2ccccc2OCC(=O)O)nnc1-c1ccccc1	-1.7	0.2%	8%	-1%	4%	-9.1%	-3.5
COc1ccc(CNC(=O)CSc2nnnn2-c2ccc(O)cc2)cc1	1.9	-2.2%	18%	-19%	-7%	-2.2%	1.7
COc1ccc(S(=O)(=O)N[C@@H](CSCc2ccccc2)C(=O)O)cc1	/	-0.3%	-3%	-29%	0%	1.2%	-1.2
CCOC(=O)N1CCC(NC(=O)CS(=O)(=O)Cc2nc(-c3cccc(Cl)c3)oc2C)CC1	5.9	3.3%	-1%	?	-14%	-5.5%	-1.5
Cc1ccc(CNC(=O)c2ccccc2CCc2ccccc2)cc1	1.5	-0.3%[38.3 µM]	-2%	-15%	-15%	1.3%	-2.9
COc1ccccc1C(=O)NC(=S)Nc1ccc2[nH]c(=O)[nH]c2c1	-0.6	10%	4%	-1%	1%	/	8.4
Cc1cc2[nH]c(=O)c(=O)[nH]c2cc1S(=O)(=O)N1CCN(c2ccccc2F)CC1	-0.8	1.6%&1.6%	21%	0%	11%	?	-3.5
CC1CCC(NC(=O)CN2C(=O)NC(C)(C)C2=O)CC1 (stereo unspecified)	/	-0.1%	/	-5%[15.4 µM]	5%	2.0%	-1.7
CC1=CC(=C2N=C(c3ccccc3)OC2=O)C=C(C)O1	?	5.3%	11%	-19%	-11%	-0.4%	-0.9
CC(C)(C)c1ccc(OCCC(=O)Nc2cccc(S(=O)(=O)NC3=NCCCCC3)c2)cc1	/	-2.7%	/	13%[15.4 µM]	-18%	/	0.3
S=C(NNc1cccc(Cl)c1)NC1CCCCC1	0.4	10%	-3%	17%[15.4 µM]	1%	/	4.4
Cc1ccc(NC(=O)C2OCCc3ccccc32)cc1 (stereo unspecified)	0.9	0.3%	-6%	1%[15.4 µM]	18%	/	-4.7
O=C1COc2ccc(C(=O)COC(=O)CCSc3ccccc3)cc2N1	4.5	3.8%	-7%	-2%	-4%	-1.5%	-5.3
CN(CC(=O)N1CCOCC1)S(=O)(=O)c1cc(Cl)ccc1Cl	0.9	1.8%	-1%	36%	11%	/	-0.7
CCOC(=O)C1CCC(=O)N1Cc1c[nH]c2ccccc12 (stereo unspecified)	/	-0.1%	/	/	/	-3.7%	-5.7
O=C(O)CCCC(=O)Nc1ccccc1-n1ccnc1	4.8	3.8%	20%	-45%[inhibitor]	11%	-1.3%	1.1
CCCCCCN1C[C@H](n2cc(-c3ccc(F)cc3)nn2)[C@@H](O)C[C@@H]1c1ccc(Cl)cc1	/	-0.7%	/	7%	/	-5.2%	-12
Cc1cc(OCc2nn[nH]n2)c2c(C)c(CC(=O)O)c(=O)oc2c1	-0.3	-3.3%	2%	18%	14%	?	-0.7
CN1CCN(C(=O)C2=C[C@@H](c3ccccc3)C[C@@H](OCc3ccc(CO)cc3)O2)CC1	-0.2	-0.8%	1%	/	5%	0.0%	-3.2
Cc1cc(OC(C)C(=O)NCc2ccncc2)c2c(C)cc(=O)oc2c1 (stereo unspecified)	-4.6	2.0%	16%	-12%	-9%	3.7%	0.3
COc1ccc(CCn2c(-c3ccc(F)cc3)nc3c(c(=O)c4ccccc4n3C)c2=O)cc1OC	-1.9	7.3%	4%	-11%	18%	/	0.3
COc1cc(C(=O)NNC(=O)c2ccc(F)cc2)ccc1OCC(=O)N1CCOCC1	/	0.1%	/	-41%[inhibitor]	7%	-4.6%	-1.1
CCOC(=O)c1c(C)[nH]c(C)c1S(=O)(=O)NCc1ccccc1C	-0.7	0.1%	6%	25%	8%	-0.8%	0.2
CSc1nc2ccc(NC(=O)c3ccc(Cl)s3)cc2s1	1.7	0.1%	-12%	6%	-4%	3.8%	-4.5
CCCCN(C(=O)c1cc(Cl)nc2ccccc12)c1c(N)n(CCCC)c(=O)[nH]c1=O	/	0.1%	/	-71%[15.4 µM]	4%	/	-1.1
CCOC(=O)c1ccc(-n2ccnc2)c(NC(=O)c2ccc(Cl)cc2)c1	4.9	3.6%	12%	-4%	-18%	2.5%	-3.4
Cc1ccc2cc(CCNC(=O)c3ccc4c(c3)OCO4)c(=O)[nH]c2c1	2.6	0.3%	18%	-5%	-14%	-16%	-1.6
COc1ccc(Cc2nnc(Nc3ccc(Cl)cc3)[nH]c2=O)cc1	7.3	1.1%	-6%	-58%[inhibitor]	0%	0.2%	4.0
Cc1cc(=O)n(CCc2ccccc2)c(O)c1C#N	?	-0.7%	-11%	16%	-12%	?	0.7
O=C(NCCN1CCOCC1)C(=O)NCC1OCCCN1S(=O)(=O)c1cc(F)ccc1F (stereo unspecified)	/	-1.4%	13%	19%	11%	1.6%	-6.8
Cc1ccnc(NC(=O)c2ccc(N3C(=O)CCC3=O)cc2)c1	1.9	-0.5%	-4%	-3%	5%	-3.2%	-0.1
Cc1cc(C)c2oc(C(=O)N(Cc3ccccc3)c3ccccn3)cc(=O)c2c1	2.7	2.7%	-12%	-22%	-18%	/	1.5
Cc1cc2n(c(=O)c1C#N)CCCN2c1cccc(Cl)c1	0.6	-0.9%[38.3 µM]	8%	-1%	-12%	?	0.4
CC(=O)Nc1ccc(NCN2C(=O)C3C4CCC(C4)C3C2=O)cc1 (stereo unspecified)	2.9	0.6%	-6%	?	6%	-2.0%	-2.3
COc1ccc(OCC(=O)Nc2ccc(S(=O)(=O)N3CCCCC3)cc2)cc1	2.2	-0.3%	19%	-7%[15.4 µM]	-20%	/	-1.2
O=C(NCC(c1ccco1)N1CCc2ccccc21)c1ccccc1F (stereo unspecified)	/	1.3%	/	5%[15.4 µM]	-10%	-2.7%	-2.9
C[C@@H]1CCC2[C@](C)(CO)[C@@H](O)CC[C@]2(C)[C@@]12CCC(CO)(CCO)O2 (stereo partly specified)	-1.1	1.3%	8%	22%	4%	-0.9%	-3.5
Cc1nc(NC(=O)CN2CCN(c3ccccc3F)CC2)sc1C(=O)N(C)C	1.4	0.1%	21%	1%	-3%	-3.2%	1.7
COc1ccc(CNC(=O)Cn2cc3c(n2)CCCCC3)cc1	-3.7	0.4%	3%	-31%	-2%	0.8%	-2.8
COC(=O)/C(=C\C=C\c1ccccc1)NC(=O)c1ccccc1	0.4	1.5%	-6%	-16%[15.4 µM]	-4%	/	-3.6
Cc1cc(Oc2ccc(-c3nnc(-c4ccccc4)o3)cc2[N+](=O)[O-])ccc1Cl	1.6	10%	14%	-18%	10%	-1.7%	-2.7
COc1ccccc1C(=O)CC(=O)c1ccccc1	2.4	3.5%	-6%	-27%	-14%	2.2%	-6.0
Cn1c(SCC(=O)Nc2ccc3c(c2)OCCO3)nnc1-c1ccncc1	5.6	-0.6%	10%	-29%	0%	/	-0.3
O=C(NCc1ccc(F)cc1)c1cnn2ccccc12	1.0	1.7%	2%	7%	7%	4.8%	-3.0
COc1ccc(N(C)S(=O)(=O)c2cccc(C(=O)OCC(=O)NCc3ccccc3OC)c2)cc1	-3.6	2.9%	2%	4%[15.4 µM]	-24%	/	-2.3
COc1ccc(OC)c(S(=O)(=O)N2CCCC(C(=O)NCc3cccnc3)C2)c1 (stereo unspecified)	3.2	-0.1%	12%	8%[15.4 µM]	14%	/	-1.8
CCOC(=O)N1CCN(CC(=O)Nc2cc(OC)c(OC)cc2C#N)CC1	-0.9	0.9%	19%	-3%[15.4 µM]	-23%	1.3%	-0.2
